Source: PubChem BioAssay
TRPML1 agonist – activates the human TRPML1 channel; Q9GZU1; TRPML1-expressing cells, Ca2+ dye fluorescence, FDSS; host cell line not named in the record; reference of the full effect not given here; activation, % (test concentration not listed); actives 0.12% (n = 410,000); in the data active = activation above about 50%; inconclusive = about 30% to 50%; inactive = below about 30%; note: 0% is about no effect; the text of the record puts the active cut at 80%
Target sequence (Q9GZU1 whole entry, looked up): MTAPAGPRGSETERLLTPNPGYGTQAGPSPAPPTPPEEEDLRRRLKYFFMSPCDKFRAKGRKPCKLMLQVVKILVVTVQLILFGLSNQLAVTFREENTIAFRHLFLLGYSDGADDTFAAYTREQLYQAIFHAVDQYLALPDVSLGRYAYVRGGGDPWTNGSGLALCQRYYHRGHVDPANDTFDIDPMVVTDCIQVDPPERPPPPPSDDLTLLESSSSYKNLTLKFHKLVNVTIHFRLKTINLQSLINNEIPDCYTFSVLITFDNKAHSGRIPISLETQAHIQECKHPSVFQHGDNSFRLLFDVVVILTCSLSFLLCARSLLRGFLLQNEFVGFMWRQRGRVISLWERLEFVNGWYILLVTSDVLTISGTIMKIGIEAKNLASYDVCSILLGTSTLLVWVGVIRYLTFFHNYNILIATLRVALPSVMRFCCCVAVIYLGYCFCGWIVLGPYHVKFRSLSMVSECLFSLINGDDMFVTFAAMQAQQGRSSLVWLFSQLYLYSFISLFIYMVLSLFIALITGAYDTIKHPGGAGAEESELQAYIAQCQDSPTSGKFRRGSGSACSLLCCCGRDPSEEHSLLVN
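Calcium fluorescence on an FDSS kinetic reader gave the read-out. Tet-induced TRPML1-DL cells were plated overnight, dye-loaded (Ca8 with quencher, 45-90 min, room temperature, dark), then read 110 s after compound addition, and again 110 s after 4uM final 54-4 (EC80).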
Six1-Eya2 blk – inhibitors of human Six1/Eya2 interaction | Q15475+O00167 | AlphaScreen GST-Six1/His-Eya2 binding, biochemical; stronger effect = lower value; control for the full effect not named in the record | activity change, % (test concentration not listed) | actives 0.56% (n = 360,000) | AID 651725; in the data active = activity change below about -65%; inconclusive = about -30% to -65%; inactive = above about -30%; note: % is set by controls: 0 for no effect and ±100 for the full control effect; compound concentration not given in the record
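Homogeneous AlphaScreen proximity assay pairing GST-Six1 with His-tagged Eya2 (added as 5X mix: 250 nM and 500 nM) in 50 mM Tris pH 8.0, 300 mM NaCl, 1 mM TCEP. Glutathione donor and nickel acceptor beads; 1 h, 37 °C, dark.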
PINK1 modulator – PINK1 expression modulation | PINK1 immunofluorescence, high-content cytometry, 24 h | Potency, µM (doses to about 76.6 µM), for inactives: at the highest dose activation (PINK1 increase), hits mostly activators | actives 0.2% (n = 410,000) | AID 624263; active = well fitted activation curve with a large enough effect; inconclusive = small, poorly fitted or top-dose-only effect; inactive = flat fitted curve, though single readings scatter; cell line not stated here;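 note: potency is the fitted concentration of half-maximal effect; % of control where 0% means no effect; nearly all actives have a fitted effect of over 65% in size; a mitochondrial uncoupler was the plate control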
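A stable cell line was treated with compounds at 5 concentrations for 24 hours, with CCCP as control. PINK1 levels and mitochondrial localization were measured by immunofluorescence with mitochondrial, cell and nuclear markers after fixation, read by laser-scanning cytometry.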
TRPML1 inh – blocks the human TRPML1 channel. Q9GZU1. TRPML1-inducible cells, Ca2+ dye fluorescence, FDSS; stronger effect = lower value; inhibition of EC80 agonist-evoked calcium signal. activity change, negative = inhibition, % (concentration not given with the values). actives 0.02% (n = 390,000); in the data active means activity change below about -50%; inconclusive means about -30% to -50%; inactive means above about -30%;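 note: stimulus is agonist 54-4 at its EC80 concentration; % is set by controls: 0 for no effect and ±100 for the full control effect; compound concentration not given in the record; the text of the record puts the active cut at -80%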
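Tet-induced TRPML1-DL cells loaded with Ca8 no-wash calcium dye were read kinetically on FDSS. Compound addition was followed by EC80 agonist 54-4 (4 uM final); inhibition was read over 110 s.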
D2 potentiator – positive allosteric modulators of human D2 dopamine receptor; P14416; DiscoveRx D2 beta-arrestin cells, luminescence, 90 min; 100% = 57 uM dopamine signal; potentiation, % (no concentration beside the values); actives 0.23% (n = 360,000); active = potentiation of 50% or more; inconclusive = 30% to 50%; inactive = 30% or less;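 note: compound concentration not given in the record; tested on top of an EC20 dose of dopamine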
Target sequence (P14416 whole entry, looked up): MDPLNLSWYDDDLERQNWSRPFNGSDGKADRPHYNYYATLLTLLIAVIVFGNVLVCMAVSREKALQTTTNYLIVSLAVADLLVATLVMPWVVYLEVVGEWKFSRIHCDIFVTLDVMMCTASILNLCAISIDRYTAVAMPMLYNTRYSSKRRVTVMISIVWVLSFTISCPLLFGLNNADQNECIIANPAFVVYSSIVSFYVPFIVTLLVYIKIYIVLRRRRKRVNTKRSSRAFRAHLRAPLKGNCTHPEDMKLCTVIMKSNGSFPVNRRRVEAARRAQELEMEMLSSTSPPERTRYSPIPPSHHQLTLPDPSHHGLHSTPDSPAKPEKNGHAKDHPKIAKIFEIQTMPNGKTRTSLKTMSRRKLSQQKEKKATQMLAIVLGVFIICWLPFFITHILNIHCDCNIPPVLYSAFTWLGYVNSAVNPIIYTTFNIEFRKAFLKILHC
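PathHunter beta-arrestin assay in DiscoveRx D2 cells. Compounds were added with an EC20 of dopamine (50 nM final) for 90 min at 37 deg C. Luminescence was read 1 h after detection reagent, with 57 uM dopamine as the EC100 control.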
D2 ag – agonists of human D2 dopamine receptor (beta-arrestin). DiscoveRx PathHunter D2 beta-arrestin, luminescence, 90 min; 100% = 57 uM dopamine signal. activation, % (no concentration beside the values). actives 0.084% (n = 360,000); in the data active = activation above about 40%; inconclusive = about 15% to 40%; inactive = below about 15%; note: compound concentration not given in the record; the text of the record calls up to 30% inactive
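DiscoveRx PathHunter D2 beta-arrestin cells (2,100/well) attached overnight, then compound-stimulated 90 min at 37 C in HBSS/10 mM HEPES/0.1% Tween-20 buffer; beta-galactosidase complementation read by luminescence after 1 h at ambient temperature. Dopamine 57 uM final (EC100) as control.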
The depositor's hits bear a star; ? = inconclusive; / = no result given; & = joins results of further samples; [ ] = remark or other dose.

SMILES	TRPML1 agonist	Six1-Eya2 blk	PINK1 modulator	TRPML1 inh	D2 potentiator	D2 ag
CSc1ccc(/C=C/c2cc(=O)c3ccccc3[nH]2)cc1	1.5	0.3	?	4.5	-19.4	4.7
CC(=O)Nc1cccc(C(=O)N/N=C/c2ccccc2F)c1	4.5	1.7	2.7%	34.2	-8.7	-1.2
OC(c1cc(F)cc(Cl)c1)c1ncc(-c2ccccc2Cl)[nH]1 (stereo unspecified)	-0.6	-14.2	7.0%	/	-2.0	5.0
Cc1cc(C)n(-c2nc3ccccc3c(=O)n2OCC(C)C)n1	-1.1	0.4	-0.1%	9.2	-3.1	-3.7
CCCCC(CC)C(=O)Nc1ccc(Nc2ccccc2)cc1 (stereo unspecified)	2.5	-23.0	9.0%	-12.9	-1.6	2.5
COc1ccc(CNC(=O)Nc2nc(C(N)Cc3ccc(Cl)cc3)cs2)cc1 (stereo unspecified)	1.6	-5.7	-1.4%	/	-2.4	-1.1
Cc1cc2c(NC(=O)Nc3ccc(C(C)(C)C)cc3)cccc2nn1	0.4	-2.1	?	11.8	-5.0	6.9
Cn1c(-c2ccc(F)cc2)cnc1SCC(=O)NNC(=O)Cc1ccccc1	1.4	0.2	-2.5%	18.1	-19.7	-6.5
O=C(c1cccs1)N1CCN(c2ncccn2)CC1	-0.2	11.2	-0.5%	19.5	2.2	-1.6
Nc1ccc(S(=O)(=O)NCc2ccccn2)cc1	-0.4	7.5	1.1%	-5.2	1.8	1.7
CCC(=O)N1CCc2cc(Br)cc(S(=O)(=O)N3CCN(c4ccccc4)CC3)c21	0.1	/	-0.1%	-23.1	/	/
Fc1ccc(-c2cnc3n2CCCCC3)cc1	-0.5	-8.0	1.1%	7.2	0.3	-0.5
COc1cccc(NC(=O)Cn2c(=O)n(Cc3ccc(F)cc3)c(=O)c3sc4ccccc4c32)c1	-0.1	/	2.0%	-21.4	/	/
C=CCNC(=O)c1cc(-c2ccc3c(c2)OCO3)on1	1.1	-3.7	0.1%	-9.4	-2.0	-1.2
O=C(O)CNS(=O)(=O)c1c(Cl)cccc1Cl	-0.2	4.3	-1.2%	-11.5	-3.4	-0.6
O=C(NNC(=O)C1CCCCC1)c1ccncc1	-0.1	6.1	0.3%	-13.9	-0.8	-0.3
CCOc1ccc(-n2ccnc2)nn1	/	0.3	-0.2%	/	10.6	3.6
Cc1ccc(NC(=O)CN(c2cc(C)cc(C)c2)S(=O)(=O)c2c(C)noc2C)nc1	2.3	4.0	0.8%	-16.7	-4.2	-1.4
COc1cccc2c1cc1c(=O)n(CC(=O)N3CCCCCC3)nc(C)n12	-0.5	-1.5	0.5%	-4.8	7.7	13.9
O=C1OCC/C1=C\c1ccc2c(c1)OCO2	0.0	6.9	0.5%	-4.3	5.2	2.1
CCS(=O)(=O)c1ccc2c(c1)N(S(=O)(=O)c1ccc(Cl)cc1)CC(C(=O)O)O2 (stereo unspecified)	0.2	2.7	0.0%	14.3	-3.5	-0.2
Cc1ccc(S(=O)(=O)c2cc3ccccc3oc2=O)cc1	3.8	-2.5	6.2%	-1.1	-8.4	-4.6
CN(C)CCOC(=O)/C(=C/c1cn(C)c2ccccc12)NC(=O)c1ccccc1	0.4	4.2	-1.2%	2.6	-9.1	-1.0
COC(=O)CC1COc2ccccc2N1C(=O)c1ccc(C(C)(C)C)cc1 (stereo unspecified)	7.4	-1.0	0.2%	-13.8	59.1*	?
COc1ccc(S(=O)(=O)N2CCOCC2)cc1NC(=O)CN1CCC(Cc2ccccc2)CC1	0.7	11.5	-2.5%	45.2	-19.5	-3.2
CCOC(=O)Cn1c(=O)oc2cc(S(=O)(=O)N3CCCC(C(=O)OCC)C3)ccc21 (stereo unspecified)	0.0	5.4	0.2%	10.7	0.2	-3.3
COc1cc(NS(=O)(=O)c2cn(C)cn2)cc(OC)c1OC	-0.3	0.1	0.3%	9.5	-13.5	-2.2
O=C(COC(=O)CCC(=O)c1ccccc1)NNC(=O)c1ccc(Cl)cc1	0.9	-2.1	-5.3%	-16.4	-18.4	-1.1
COc1ccccc1NS(=O)(=O)c1cc(NC(=O)c2sc3cc(Cl)ccc3c2Cl)ccc1C	-0.2	-0.5	9.9%	-8.6	-7.9	4.6
Cc1cccc(N2CCN(C(=O)c3cc4ccccc4oc3=O)CC2)c1C	0.3	-2.3	-0.8%	-3.6	-9.0	-5.3
O=[N+]([O-])c1cccc(CSc2nc3ccccc3[nH]2)c1	4.1	0.2	2.8%	0.0	1.4	-4.4
CCCCN(C(=O)c1nn(C)c(=O)c2ccccc12)c1c(N)n(CC(C)C)c(=O)[nH]c1=O	-0.4	20.9	-0.2%	-8.3	-10.2	-5.1
COc1ccc(C(C)(O)c2nc(-c3ccccc3OC)cs2)cc1 (stereo unspecified)	0.0	-6.6	9.8%	-3.3	-2.8	-3.5
O=C(OCC(=O)c1ccc(Cl)s1)c1cnccn1	0.8	-5.0	3.0%	0.2	-21.8	2.1
CC(C)(C)NC(=O)CSc1ccc(S(=O)(=O)N2CCOCC2)cn1	1.3	8.1	0.1%	6.6	-8.9	4.4
O=C(O)C1C2CCC(O2)C1C(=O)Nc1ccc(Br)cc1F (stereo unspecified)	-0.6	7.3	2.1%	-7.8	0.8	-4.4
O=C(c1ccc(C(F)(F)F)cc1)C1CCCN(C(=O)CCn2cncn2)C1 (stereo unspecified)	-0.5	3.0	0.8%	-7.9	-3.5	2.0
O=C1c2ccccc2S(=O)(=O)c2cc(N3CCN(C(=O)c4ccccc4)CC3)ccc21	9.2	6.7	2.5%	-16.6	-1.4	0.8
COC(=O)c1ccc(COn2nnc3ccccc32)cc1	-0.7	5.2	2.1%	-13.3	-1.0	0.3
Cc1ccccc1CN1C(=O)c2ccccc2Sc2ccc(C(=O)NCCN3CCOCC3)cc21	1.7	-1.4	0.8%	-2.2	-14.2	-1.8
COc1ccc(OC)c(NC(=O)COC(=O)c2nc(Cl)ccc2Cl)c1	-0.5	2.8	2.1%	1.9	-1.2	-1.1
Cc1ccc(C(=O)c2c(N)c(-c3nc(-c4ccc5c(c4)OCO5)cs3)c3ccccn23)cc1C	0.4	/	2.2%	14.0	/	/
CC(=O)NCCC(=O)Nc1cc(F)ccc1C	-0.4	3.6	0.9%	12.4	6.2	-0.9
CCN(C(=O)CSc1nc2cc(S(=O)(=O)N(CC)CC)ccc2o1)C1CCS(=O)(=O)C1 (stereo unspecified)	-0.4	3.1	-0.4%	-4.8	0.6	-0.7
CCN(C(=O)CCc1nnc2ccc(N3CCC4(CC3)OCCO4)nn12)c1ccccc1	-0.3	3.5	-0.5%	0.0	0.6	-6.4
CSCc1ccc(C(=O)NCc2ccc(F)cc2)cc1	-0.7	0.1	-0.8%	-5.7	-13.3	0.9
Cc1ccc(C)c(NC(=O)CN(C)S(=O)(=O)c2ccc3c(c2)CCC(=O)N3)c1	-1.0	/	0.4%	-0.9	/	/
COc1cc(N=Cc2c(O)[nH]c3ccccc23)cc(OC)c1OC	-0.1	-21.7	1.2%	10.2	-17.5	-0.3
COc1ccc(-c2nnc3ccc(SCC(=O)N4CCOCC4)nn23)cc1	-0.5	0.5	2.0%	1.5	-8.0	6.3
Cc1c(C(=O)N2CCCCC2)c(S(=O)(=O)N(C)Cc2ccccc2)c(C)n1C	0.4	-1.4	-0.2%	-13.8	-2.8	-1.4

More structures:
SMILES	TRPML1 agonist	Six1-Eya2 blk	PINK1 modulator	TRPML1 inh	D2 potentiator	D2 ag
CC(=NO)C1(C)CC=CCC1CO (stereo unspecified)	0.1	0.0	0.5%	-25.5	-10.9	-2.0
CCOC(=O)N1CCC(NC(=O)CSCc2nc(-c3ccc(OCC)cc3)oc2C)CC1	1.2	0.4	0.6%	-6.2	-15.5	?
Cc1ccccc1CNC(=O)C1CCCN(c2cnccn2)C1 (stereo unspecified)	0.3	0.5	0.7%	-3.5	-7.8	-4.4
COc1ccc(/C=N\NC(=O)C2=NNC(=O)C2C)cc1 (stereo unspecified)	1.5	-2.9	-0.6%	4.8	3.0	0.6
CN(C)S(=O)(=O)Oc1ccsc1C(=O)Nc1ccc(Br)cc1	2.1	3.5	3.3%	-2.2	-7.9	1.5
Cc1nc2scc(C)n2c(=O)c1S(=O)(=O)Nc1ccc(N2CCN(C(=O)C(C)C)CC2)cc1	0.9&0.2	0.9	2.3%&2.5%	-8.5&-6.3	-3.0	5.0
COc1cc2cc(C(c3nnnn3Cc3ccc(F)cc3)N3CCCCCC3)c(=O)[nH]c2cc1OC (stereo unspecified)	2.6	0.4	-0.7%[38.3 µM]	-2.6	-7.8	-3.8
CCCCC1(C2CCCC2)NC(=O)NC1=O (stereo unspecified)	-0.8	10.0	-1.1%	-2.4	-0.4	2.2
Cc1[nH][nH]c(=O)c1C(c1ccc(-c2cccc(C(=O)O)c2)o1)c1c(C)[nH][nH]c1=O	0.6	-5.0	0.1%	7.0	-3.4	-3.1
Cn1c(=O)c2[nH]c(-c3ccccc3)c(O)c2n(C)c1=O	27.6	2.6	-2.6%	-18.4	107.6*	?

3 entries out of the list above, sorted by the number in TRPML1 inh, falling:
canonical_smiles	TRPML1 inh
CC(=O)NCCC(=O)Nc1cc(F)ccc1C	12.4
Nc1ccc(S(=O)(=O)NCc2ccccn2)cc1	-5.2
O=C(c1ccc(C(F)(F)F)cc1)C1CCCN(C(=O)CCn2cncn2)C1 (stereo unspecified)	-7.9

The listing continues:
SMILES	TRPML1 agonist	Six1-Eya2 blk	PINK1 modulator	TRPML1 inh	D2 potentiator	D2 ag
CN=CC1=C(O)c2ccccc2C1=O	3.7	4.3	-2.9%[38.3 µM]	-7.0	-12.2	0.4
COc1cc(C(=O)Nc2nccs2)ccc1OCc1c(C)noc1C	1.3	?	11.2µM*	-10.3	3.1	0.2
CN(C)C(=O)c1c([N+](=O)[O-])c(C(C)(C)C)nn1C	-0.8	-2.7	3.1%	11.6	3.9	-1.7
CC12CCC(=O)N1C(C(=O)Nc1cccc(S(=O)(=O)N3CCCCC3)c1)CS2 (stereo unspecified)	-0.3	1.3	-0.1%	-3.7	-7.0	-6.5
c1cc(N2CCCC2)ccc1C(c1nnnn1C1CCCCC1)N1CCOCC1 (stereo unspecified)	-0.6	-12.6	-0.4%[38.3 µM]	-7.1	-19.7	-2.6
COc1cc(-c2nc3cnccn3c2NC(C)(C)CC(C)(C)C)ccc1O	1.0	8.0	1.6%	-4.3	-2.3	6.3
Cc1ccc(-c2nc(CS(=O)CC(=O)NCCN3CCCCCC3)c(C)o2)cc1 (stereo unspecified)	-0.2	2.1	-0.9%	-0.3	-9.6	-0.3
Cc1cccc(-c2n[nH]c(=S)n2/N=C/C=C/c2ccco2)c1	1.2	2.7	0.8%	4.2	-5.5	9.2
CCn1c(=O)c(C(=O)CN2CCN(S(=O)(=O)c3ccccc3)CC2)c(N)n(Cc2ccccc2)c1=O	2.4	-3.7	1.7%	-0.8	3.5	-3.1
COc1ccc(Cc2c(C(C)(C)C)nc3ccc(C)cn23)c(C)c1	-0.5	2.3	-0.1%	/	-13.7	-6.2
